High-throughput results: PubChem BioAssay, several laboratories
MLL AF4-AF9 inh: inhibitors of AF4 peptide binding to AF9, primary screen, biochemical, AlphaScreen, biotin-AF4 peptide, FLAG-AF9, single point. inhibition, % at 10 µM. Protein AF-9 (Homo sapiens), P42568. 0.47% of 350,000 active;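 active = every replicate reaching a set inhibition limit, whatever the replicate mean, cut at about 25% in these data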;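 note: 0% = plate neutral control median and 100% = total signal loss; the record names both 10 and 1 µM as test concentration; the first replicate is given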
Target sequence (P42568 whole entry, looked up): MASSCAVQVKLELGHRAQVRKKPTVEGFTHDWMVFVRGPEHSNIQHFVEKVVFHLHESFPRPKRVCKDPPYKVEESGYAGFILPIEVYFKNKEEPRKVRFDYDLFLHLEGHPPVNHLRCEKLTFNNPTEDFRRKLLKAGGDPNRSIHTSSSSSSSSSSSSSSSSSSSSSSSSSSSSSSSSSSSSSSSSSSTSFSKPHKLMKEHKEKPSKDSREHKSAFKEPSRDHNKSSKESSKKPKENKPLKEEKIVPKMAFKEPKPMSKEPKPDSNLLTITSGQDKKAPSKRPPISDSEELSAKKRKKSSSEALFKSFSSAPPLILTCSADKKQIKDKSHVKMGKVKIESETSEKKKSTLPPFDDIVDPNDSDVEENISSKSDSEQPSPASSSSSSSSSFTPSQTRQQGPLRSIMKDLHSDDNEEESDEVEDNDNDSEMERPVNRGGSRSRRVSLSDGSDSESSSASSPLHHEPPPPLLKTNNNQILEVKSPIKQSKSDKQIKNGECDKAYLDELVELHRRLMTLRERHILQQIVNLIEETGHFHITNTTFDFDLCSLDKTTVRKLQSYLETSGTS
Vif TR-FRET: inhibitors of Vif binding to APOBEC3G peptide, primary screen, biochemical, TR-FRET, GST-Vif 1-94, biotin-A3G peptide, dose response retest (AID 1117319); Virion infectivity factor (Human immunodeficiency virus type 1 group M subtype B (isolate …; TR-FRET GST-Vif / biotin-A3G peptide binding; higher % means a stronger effect; test concentration not given here; strong numbers were not always called active; inhibition, %; hits with a dose series show IC50 in µM; 0.57% of 260,000 active;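 active = above the screen mean plus three standard deviations and confirmed in dose response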;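 note: Vif residues 1-94 fused to GST binding biotinylated APOBEC3G peptide 110-148; 0% = full assay without inhibitor and 100% = GST in place of GST-Vif; retest series ran down from 100 µM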
Active calls of the source: *; & = joins results of further samples. This is a subset; the hit share may differ from the screen's.

MLL AF4-AF9 inh	Vif TR-FRET	Molecule
0.0	0%	Nc1ccc(N=Nc2ccccc2)cc1[N+](=O)[O-]
-4.8	70µM*	CCOC(=O)c1cc([N+](=O)[O-])cc([N+](=O)[O-])c1Sc1ncnc2nc[nH]c12
0.5	-5%	CCOc1ccccc1N(CC(=O)NCCc1ccc(OC)cc1)S(=O)(=O)c1ccc(C)cc1
73*	-271%	CC[n+]1ccc(/C=C/c2ccc(N(C)C)cc2)c2ccccc21
6.4	2%	COc1ccc(C=Cc2ccc3ccccc3n2)c(OC)c1
2.9&-0.2	6%	C[C@@H]1CN([C@@H](C)CO)S(=O)(=O)c2ccc(Br)cc2O[C@H]1CN(C)Cc1ccncc1
-1.6	5%	O=C1NCCN(CC2CCN(CC3CCCC3)CC2)C1=O
-2.3	0%	O=C(OC1C2C=CC1C1C(=O)NC21)c1ccccc1 (centres undefined)
4.7	7%	CN(C)C(=O)CCc1ccc2c3c([nH]c2c1)[C@]1(C)[C@@H](C(=O)N2CCCCC2)C[C@H](CC(=O)NCc2cccc(C(F)(F)F)c2)C(=O)N1CC3
-0.6	-1%	CC(=O)C(C(c1ccccc1)N1CCOCC1)N1CCOCC1 (centres undefined)
0.4&-0.2&-1.4	-1%	C[C@H](CO)N1C[C@H](C)[C@H](CN(C)C(=O)c2ccccc2F)Oc2ncc(Br)cc2C1=O
1.4	3%	COc1ccc(CN(C)C(=O)/C=C/c2ccc(S(=O)(=O)N3CCOCC3)cc2)cc1F
-1.8	10%	COC(=O)c1ccc2cc(OC)c(OC)cc2c1
0.3	3%	COc1ccccc1N(C)S(=O)(=O)c1ccc(C(=O)N2CCC2)cc1
-0.2	-2%	CC(OC(=O)C1=COCCO1)C(=O)Nc1ncc(Cl)cc1Cl (centres undefined)
-2.2	-8%	CC(=O)Nc1ccc2c(c1)Cc1ccc(Cl)cc1-2
-2.5	-6%	O=C(Nc1ccc(Cl)cn1)c1ccccc1-c1ccccc1
5.0	5%	CCN(N=O)c1ccc(C=C2C=Cc3ccccc32)cc1
-0.5	-4%	CCOc1ccc(S(=O)(=O)N2CCCCC2)cc1NC(=O)C1CCCC1
-1.0	2%	O=[N+]([O-])c1cccc(N=Cc2ccccc2)c1
4.6	-2%	CC1CCCC(NC(=O)NC(=O)COC(=O)c2ccc(O)cc2O)C1C (centres undefined)
2.3	-9%	COCCn1c(=S)[nH]c2cc(C(=O)NC3CCCCCC3)ccc2c1=O
13	5%	COC(=O)C=CC(=NNc1ccccc1)c1ccccc1
-1.9	0%	CC(=O)NCc1ccc(S(=O)(=O)N2CCN(S(=O)(=O)c3ccc4ccccc4c3)CC2)cc1
0.7	3%	Cc1ccc(S(=O)(=O)N2C[C@H]3N(C(=O)OC(C)C)N(C(=O)OC(C)C)C[C@H](OC(=O)NCc4ccccc4F)[C@@]3(O)C2)cc1
-2.3	-12%	N#Cc1ccccc1S(=O)(=O)N1CCN(c2nc(-c3ccccc3)nc3ccccc23)CC1
-2.6	4%	COc1ccc(-c2nnc(SCC(=O)N(C)C3CCS(=O)(=O)C3)n2CC(C)C)cc1 (centres undefined)
-4.6	-9%	CC(=O)Nc1ccc(C=NNC(=O)CCCC(=O)NN=Cc2ccc(NC(C)=O)cc2)cc1
2.0	-1%	COc1cc(OC)c2c(-c3ccccc3)cc(C3CCCCC3)nc2c1
-3.2	8%	O=C(O)c1ccsc1Cc1cccs1
-8.2	1%	NS(=O)(=O)c1ccc(N2CCN(C(=O)C3COc4ccccc4O3)CC2)nc1 (centres undefined)
-0.2	5%	CCOC(=O)c1ccccc1NC(=O)COC(=O)CCNS(=O)(=O)c1cccs1
-2.5	6%	C#CCN(C[C@@H]1[C@@H](OC(=O)NCC2CCCCC2)[C@@H](OC(=O)NCC2CCCCC2)CN(C(=O)OC(C)C)N1C(=O)OC(C)C)S(=O)(=O)c1ccc(C)cc1
4.4	-7%	Cc1ccc(S(=O)(=O)N2CCCCC2)cc1C(=O)NCc1ccc(S(N)(=O)=O)cc1
0.3	-3%	CCN(CC)C1CCN(C(=O)c2ccc(OC3CCN(C(=O)CCOC)CC3)cc2)C1 (centres undefined)
-1.3	-2%	COc1ncnc2c1ncn2CCCNCCCN1CCCC1=O
-4.2	-9%	O=C1NC(c2ccccc2)C(c2ccccc2)N1 (centres undefined)
-0.3	-1%	COCC1CCN(C(=O)c2cc(COc3ccc(F)cc3Cl)on2)C1 (centres undefined)
2.6	2%	COc1ccc([C@H]2N[C@]3(CCCN(Cc4ccc(C)cc4)C3=O)[C@H]3C(=O)N(Cc4ccccc4)C(=O)[C@@H]23)cc1
-0.5	-3%	COc1ccccc1CNC(=O)CCCN1C(=O)NC2(CCCC2)C1=O
0.9&-0.1	-3%	C[C@@H]1CN([C@@H](C)CO)S(=O)(=O)c2ccc(Br)cc2O[C@H]1CN(C)C(=O)C1CCCCC1
1.9	2%	COc1ccc(NC(=O)CSc2nnc3n2CCCCC3)cc1OC
2.5	-4%	COc1ccccc1-c1ccc([C@@H]2C[C@H]3[C@H](CON3C)CN2C(=O)c2ccco2)cc1
-4.9	-4%	Cc1sc2ccccc2c1CNC[C@H]1O[C@@H](n2ccc(N)nc2=O)[C@H](O)[C@@H]1O
-1.4	3%	COCC(=O)N1C[C@H]2CON(C)[C@H]2C[C@H]1c1cccc(-c2ccccc2OC)c1
-3.7	-10%	CCOC(=O)Nc1cc(N)ncn1
3.0	-2%	COc1ccc(Br)cc1C1=CC(=O)C[C@H](c2ccc(F)cc2)C1
1.4	10%	CCN(CC)C(=O)C1=C(C)N(Cc2ccc(F)cc2)C(=O)C(CC(=O)NCc2cccc3ccccc23)C1 (centres undefined)
-1.1	3%	CCCNC(=O)Cn1c(=O)/c(=C/c2ccc(-c3ccc([N+](=O)[O-])cc3)o2)s/c1=C\C(=O)C(C)(C)C
-6.5	0%	CC(=O)N1CCN(C(=O)c2cc(S(=O)(=O)N3CCN(c4ccccc4)CC3)ccc2Cl)CC1
-2.9	9%	O=C(CN1CCN(C(=O)c2ccc(-c3nc4ccccc4s3)o2)CC1)Nc1cccc(F)c1
4.9	-3%	CCOC(=O)C1(NC(=O)CN2C(=O)c3ccccc3C2=O)CCCC1
-3.2	-4%	Cc1ccc(S(=O)(=O)NN=C2CC(C)(C)OC2(C)C)cc1
-5.5	-6%	O=C1NC(=O)C2(CCC(C3CCCCC3)CC2)N1 (centres undefined)
-3.1	-7%	COc1cccc(OC)c1C(=O)OCC(=O)NCCNC(=O)COC(=O)c1c(OC)cccc1OC
8.0	-7%	O=C1CC(c2ccc(Cl)cc2)Oc2ccc(Cl)cc21 (centres undefined)

(further entries)
MLL AF4-AF9 inh	Vif TR-FRET	Molecule
-3.5	-2%	O=C(Nc1ccccc1N1CCOCC1)c1cccc2ccccc12
-0.8	9%	Cc1cc(C)c2c(=O)n3c(nc2c1)C(CC(C)C)NC(=O)c1cccnc1-3 (centres undefined)
-2.1	-4%	CC1=C(C(=O)N2CCOCC2)CC(CC(=O)NCCCCc2ccccc2)C(=O)N1CCCN1CCCC1=O (centres undefined)
-3.4	-3%	COc1cc(OC)c2c(-c3cccc(-c4ccc(NC(C)=O)cc4)c3)cc(=O)oc2c1
-2.8&-2.2&-0.2	-6%	C[C@H](CO)N1C[C@H](C)[C@@H](CN(C)Cc2ccc3cccnc3c2)OCc2cnnn2CCCC1=O
1.1	-10%	Cc1cc(=O)oc2cc(OCC(=O)Nc3ccc(F)cc3F)ccc12
-4.8	-2%	CCN(c1ccccc1)S(=O)(=O)c1ccc(Cl)c(NC(=O)CSc2nc(N)cc(=O)[nH]2)c1
-2.5	0%	O=C(CCCCn1cnc2c(=S)nc[nH]c21)Nc1ccc(C(=O)O)c(O)c1
4.0	13%	CCOc1ccc(S(=O)(=O)NCCC(=O)N2CCN(C(C)=O)CC2)cc1
0.9	6%	CCN(Cc1cccs1)C(=O)CN1CCN(S(=O)(=O)c2ccc3c(c2)OCCCO3)CC1
-1.7	1%	COc1cc2c(NCCCCCO)ncnc2c(OC)c1OC
-1.5	10%	CCOC(=O)N1CCN(C(=O)COC(=O)c2cccc(C)c2[N+](=O)[O-])CC1
0.6	-1%	Cc1ccc(C(=O)C2CC2)c(C)c1
3.3&-0.3	-3%	COc1ccc(NC(=O)N(C)C[C@H]2OCc3cnnn3CCCC(=O)N([C@@H](C)CO)C[C@H]2C)c(OC)c1
-3.7	-3%	O=S(=O)(Nc1ccc(NS(=O)(=O)c2ccccc2)c(Cl)c1)c1ccccc1
4.0	-4%	COC(=O)C1CCN(S(=O)(=O)c2c[nH]c(=O)[nH]c2=O)CC1
2.7&5.0	-3%	C[C@H](CO)N1C[C@H](C)[C@@H](CN(C)Cc2ccccc2)Oc2c(NC(=O)c3ccncc3)cccc2C1=O
0.7	-1%	COc1ccc(Cl)cc1NC(=O)CN(C)C1CCS(=O)(=O)C1 (centres undefined)
-1.3	3%	CC[C@]12c3[nH]c4cc(CCC(=O)N(C)C)ccc4c3CCN1C(=O)[C@@H](CC(=O)NCCCN(C)C)C[C@@H]2C(=O)N1CCN(C(=O)c2ccco2)CC1
4.7	-9%	NC(=O)C1(Nc2ccc(Br)cc2)CCCC1
-1.9	-9%	Cc1ccc2c(CC(=O)Nc3ccc4nc(N5CCOCC5)sc4c3)coc2c1
-1.1	-2%	Cc1ccc(C(=O)OCC(=O)NCc2ccc(Cl)cc2)s1
-1.8	-1%	CN1CCN(C(=O)C(Cc2ccccc2)NS(=O)(=O)c2ccc3c(c2)CCC(=O)N3)CC1 (centres undefined)
1.1	1%	COC(=O)c1ccc(CSC2=NC[C@@H]3[C@@H]4C(=O)N(Cc5ccccc5)C(=O)[C@@H]4[C@](C)(C(=O)OC)N23)cc1
-7.4	4%	Cc1nc2c(Br)cc(Br)cc2c(=O)n1-c1ccccc1NC1OCC(O)C(O)C1O (centres undefined)
-2.8	1%	CC1CC(=O)C(C(C2=C(O)CC(C)CC2=O)c2ccccc2)=C(O)C1 (centres undefined)
-1.0	0%	O=C1OC(c2ccccc2)C(O)=C1c1ccccc1 (centres undefined)
2.5	-2%	COC(=O)C1Cc2c([nH]c3ccccc23)C2CCC(=O)N12 (centres undefined)
-0.2	-6%	C#CCOCC1CNC(=S)O1 (centres undefined)
2.7	4%	O=[N+]([O-])c1ccc(Nc2cccc3c2[nH]c2c(-c4ccccc4)nccc23)c([N+](=O)[O-])c1
-2.4	0%	NC1=C(Br)C(=O)c2ncccc2C1=O
3.7	-12%	CCCn1c(N)c(C(=O)CSc2ncnc3sccc23)c(=O)n(C)c1=O
-5.5	-14%	COc1ccccc1-c1cc2nc(-c3ccccc3)cc(N3CCN(C(=O)c4ccco4)CC3)n2n1
0.3	1%	O=C(CC1(O)C(=O)Nc2ccc(Br)cc21)c1ccccc1 (centres undefined)
